# AID504770: growth inhibition of E. coli YBA685, primary screen, V. cholerae RctB inhibitors | E. coli YBA685 rctB-dependent plasmid, OD600 growth, 3 h; hits give low values | 130,000 tested, 0.27% active | z-score (concentration not given with the values);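 active means z-score under -2 on both plates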;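 further: wells of about 30 µL received 100 nL stock; score is relative to mean and SD of the test wells; the first replicate is given; strong numbers were not always called active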
# Ba CapD inh: Bacillus anthracis CapD inhibitors, primary screen, biochemical, fluorescence intensity; 140,000 tested, 0.23% active; CapD gamma-glutamyltranspeptidase (Bacillus anthracis Ames Ancestor); purified CapD enzyme, fluorescence intensity read-out; hits give low values; some hits fall short of the stated cut; z-score (no concentration beside the values);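 active means z-score under -4 in either of two replicates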;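 further: stock transfer was 100 nL into about 40 µL; score is relative to mean and spread of the plate; one replicate is shown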
# * = called active by the depositor; i = inactive; x = no result given; & = joins results of further samples.
SMILES,AID504770,Ba CapD inh
CCc1nnc2c3c(-c4ccccc4)csc3ncn12,0.5,0.73
Cc1nc(=S)[nH]c(C)c1CCC(=O)NCc1ccco1,-0.05,x
O=C1/C(=C/c2ccccc2)CC/C1=C\c1ccccc1,x,-0.11
O=S(=O)(c1ccc(F)cc1)N(Cc1ccco1)CC1CCCO1 (stereo not drawn),x,-1.2
CCOC(=O)c1cnn(-c2ccccc2)c1NC(=O)CSc1nc2ccccc2[nH]1,x,-1.4
COC(=O)C1=CN(Cc2ccc(OC)c(OC)c2)C=C(C(=O)OC)C1c1cc(Cl)c(O)c(OC)c1,x,36
CCOC(=O)c1c(C)n(-c2ccc(C)c(C)c2)c2ccc(OC(=O)c3ccccc3)cc12,x,-0.26
O=C(CCN1CCOCC1)Nc1cc(C(=O)Nc2ccc(F)c(F)c2)ccc1N1CC2CC(C1)c1cccc(=O)n1C2 (stereo not drawn),x,0.76
N#Cc1ccc(C(=O)NC2CCS(=O)(=O)C2)cc1 (stereo not drawn),-0.1,-0.015
Cc1ccc(S(=O)(=O)N2CCN(Cc3cc(-c4ccccc4)ccc3O)CC2)cc1,-0.55,i
O=C(CCN1C(=O)C2C3C=CC(C3)C2C1=O)NCCc1ccccc1 (stereo not drawn),1.5,-0.71
O=C(c1c[nH]c2ccccc2c1=O)N(c1ccccc1)c1ccccc1,-1,-0.25
CCc1ccccc1NC(=O)CCn1c(=O)c2cccn2c2ccccc21,0.5,-0.035
O=C(O)CCC(=O)n1ncc2ccccc21,-0.55,-0.2
CCc1ccccc1Nc1nc(N)nc(CNc2ccccc2)n1,-0.4,x
CCOC(=O)C1CCCN(Cc2cccc(C)c2)C1 (stereo not drawn),-0.85,0.015
C=CCc1cccc(CNc2cnc3ccccc3c2)c1O,-0.35,75
O=C(CSc1ccc(S(=O)(=O)N2CCCCC2)cn1)NCc1ccco1,0.95,x
CCNc1nc(=S)nc(NCC)[nH]1,1.1,x
Cc1noc(C)c1Cn1cnc2scc(-c3ccc(Br)cc3)c2c1=O,-0.9,x
N=c1sccn1Cc1ccccc1,-2.5,x
COc1ccc(-c2ocnc2C(=O)O)cc1,-0.1,1.1
CCCC(=O)c1cc(F)c(N2CCN(C)CC2)cc1C,0.2,-0.26
CCOC(=O)C1(C(=O)OCC)C(c2ccccc2)CC(=O)CC1c1ccccc1 (stereo not drawn),1.7,0.34
CCCN1CCN(C(=O)CC(NC(=O)c2ccccc2Cl)c2ccccc2)CC1 (stereo not drawn),0,x
CC(C)Oc1ccc(C2C3=C(CC(C)(C)CC3=O)Nc3ccccc3N2C(=O)C(F)(F)F)cc1 (stereo not drawn),x,0.08
CC(C)(C)C(=O)CC(O)(c1ccccc1)C(F)(F)F (stereo not drawn),-0.45,0.02
CCSc1nc2ccccc2c(=O)n1Cc1ccco1,0.15,x
CCOC(=O)c1cc(NS(=O)(=O)c2ccccc2)ccc1N1CCCCC1,1,1.4
O=C(c1ccccc1)N1CC2CC(C1)c1cccc(=O)n1C2 (stereo not drawn),-0.7,0.94
CN1CCN(C(=O)CC2Sc3ccccc3NC2=O)CC1 (stereo not drawn),0.4,0.32
Cc1ccc2cc(CCC(=O)O)c(=O)[nH]c2c1,-0.95,26
COc1cc(/C=N/NC(=O)c2cc(C3CC3)nc3ccccc23)c([N+](=O)[O-])cc1OC,x,-0.14
COc1ccc(S(N)(=O)=O)cc1C(=O)OCC(=O)N1c2ccccc2NC(=O)C1(C)C,0.05,x
COc1ccc(OC)c(NC(=O)c2ccccc2)c1,2.4,x
COC(=O)c1c(C)[nH]c(C)c1/C=N/O,-0.1,0.67
Cc1coc2c(Cl)cc(Cl)cc2c1=O,-0.15,0.61
Nc1cccc(CCc2nc3ccccc3[nH]2)c1,-1.4,-0.005
S=c1[nH]nc(Cc2ccccc2)n1Cc1ccccc1,0&-0.25,0.64
CC1CN(Cc2csc(Nc3ccccc3)n2)CC(C)O1 (stereo not drawn),-0.2,x
CCOC(=O)c1cc2cc(F)ccc2[nH]1,x,15
COc1ccc(Cn2nnnc2C(c2cccs2)N2CCOCC2)cc1 (stereo not drawn),-1.2,x
O=C(NCC1CCCO1)C1CCC(=O)N1Cc1ccc(F)cc1 (stereo not drawn),0.1,-0.11
CCCCCCOc1ccc(S(C)(=O)=O)cc1NS(=O)(=O)c1cccc(C(F)(F)F)c1,x,-0.4
Cc1ccc(NC(=O)CN(C)C(=O)CSc2nccn2C)cc1,-0.45,x
O=C(O)C(Cc1c[nH]c2ccccc12)N1C(=O)C2C3C=CC(C3)C2C1=O (stereo not drawn),0.5,x
CCOCCCn1c(=S)[nH]c2cc(C(=O)NCCc3c[nH]c4ccccc34)ccc2c1=O,x,-0.2
Nc1ccc(Cl)c(C(F)(F)F)c1,0.35,0.47
O=C(c1cccc(Cl)c1Cl)N1CCOCC1,0.15,0.15
Cc1nc(-c2ccccc2)sc1C(=O)Oc1ccccc1N1CCOCC1,0.65,-0.3
Cc1ccc(NC(=O)C(Cc2c[nH]c3ccccc23)NC(=O)OC(C)(C)C)cc1C (stereo not drawn),x,-1
CC(C)OC(=O)c1cc(C(=O)O)c(C(=O)OC(C)C)cc1C(=O)O,0.55,0.51
CCSc1nc2sc3c(c2c2n[nH]c(=S)n12)CCCC3,-0.95,-0.075
O=C(O)c1ccc(CSc2ccccn2)cc1,0.6,0.85
CCCC(=O)N1c2ccc(C)cc2C2CN(C)CCC21 (stereo not drawn),x,0.065
CCc1ccc(N(CC(=O)NCC2CCCO2)S(C)(=O)=O)cc1 (stereo not drawn),-0.3,x
C=CCn1c(NCCO)nc2sc3c(c2c1=O)CCC3,1.5,x
Cc1onc(-c2ccccc2)c1-c1ccnc(N)n1,-0.7,0.52
CC12CC3(C)CC(C)(C1)CC(CO)(C2)C3,-0.3,-0.61
C=CCn1c(NC(=O)c2ccc(C)cc2)c(C#N)sc1=N,-0.85,0.85

# Next section:
SMILES,AID504770,Ba CapD inh
CCOC(=O)c1cn(Cc2ccccc2)c2ccccc2c1=O,-0.35,-0.2
CCCCn1c(=O)oc2cc(Br)ccc21,2.3,-0.52
CCc1ccc(C(=O)On2c(-c3ccccc3F)nc3ccccc3c2=O)cc1,x,-0.42
CCc1c(C)nc(SCC(=O)N2CC(C)OC(C)C2)[nH]c1=O (stereo not drawn),0.9,x
CCOC(=O)C1=C(C)N=c2s/c(=C\c3ccc(OC)c(OC)c3)c(=O)n2C1c1ccc(N(C)C)cc1 (stereo not drawn),x,-0.28
O=C(NCc1ccc(Cl)cc1)c1ccc(Br)o1,-1,-0.46
C=C(C)C1CC=C(C)/C(=N\NC(=O)Nc2ccccc2)C1 (stereo not drawn),-0.1,-0.2
Nc1nnc(-c2cc3ccccc3oc2=O)s1,x,6.3
CC(C)c1nnc(SCC(=O)Nc2ccc(Cl)cc2)n1N,-0.65,x
CC1CC(=O)N(c2ccc(OC(F)(F)F)cc2)C1=O (stereo not drawn),-0.1,0.96
O=C(Cn1c(=O)sc2ccccc21)Nc1cccc(Cl)c1,0.45,x
Cc1ccsc1CNC(=O)c1ccccc1,1.1,0
CN(Cc1ccccc1)C(=O)c1ccc(N2CCCC2=O)cc1,-0.75,-0.53
CCn1c(CNC(=O)c2ccc(OC)c(OC)c2)nc2ccccc21,2.7,-1.1
CCOC(=O)C1=C(c2ccccc2)OC(N)=C(C#N)C1C(C)C (stereo not drawn),1.4,-0.58
O=C(Nc1nncs1)c1ccc(N2C(=O)C3C4C=CC(C4)C3C2=O)cc1 (stereo not drawn),-0.4,-0.4
CCN(CC)c1ccc(C2CC(=O)C3=C(C2)Nc2ccccc2N(C(=O)CCC(=O)O)C3c2ccccc2)cc1 (stereo not drawn),x,-1.4
N#C/C(=C(/O)CN1CCOCC1)c1nc2ccccc2s1,-0.45,-2.8
CC(C)(C)NC(=O)CCc1nc(-c2ccccc2)no1,0.1,1
COc1ccc(OCc2nnc(SCC(=O)N3C(C)CCCC3C)o2)cc1 (stereo not drawn),-0.5,x
NS(=O)(=O)c1ccc2nc(NC(=O)c3ccc(Br)cc3F)sc2c1,1.8,0.48
COc1ccc(C2=NN3C(C2)c2ccccc2OC3c2cccc([N+](=O)[O-])c2)cc1 (stereo not drawn),x,0.39
O=C(COC(=O)c1cnccn1)c1ccc(Cl)cc1,-0.1,0.21
CN(CC(=O)Nc1ccccc1)CC(=O)Nc1ccccc1Cl,-0.9,x
COc1cccc(Cn2c(-c3cscn3)nc3ccccc32)c1,0,x
C=CCn1c(SCC(=O)NC(=O)Nc2ccccc2F)nc2ccccc21,0.75,x
Cc1ccc(C)n1C1=C(C(=O)NNC(=O)C(C)c2ccc(Cl)cc2)C=CC1 (stereo not drawn),x,-1.1
CC1(C)CN(c2ccc(Cl)cc2C(=O)c2ccccc2)C1=O,0,-0.9
COc1ccc(NC(=O)N(Cc2ccc(C)cc2)Cc2ccccn2)c(OC)c1,-0.2,3.7
O=C(c1ccc(Cl)cc1)N1CCS(=NS(=O)(=O)c2ccc(Cl)cc2)CC1,-1.1,0.22
CCN=c1scc(C)n1/N=C/c1cn(-c2ccccc2)nc1-c1ccc(OC)c(OC)c1,0.65,x
O=C(NCCN1CCN(Cc2ccccc2C(F)(F)F)CC1)Nc1ccccc1,-0.55,0.34
Fc1ccccc1OCc1nnc2n1CCCCC2,1.6,-0.32
Cc1ccc(C)c(NC(=O)CSc2ncnc3c2oc2ccccc23)c1,-0.9,x
COc1ccc2c(c1)C=C(C#N)CO2,-0.15,-0.42
CCN1CCCC1CNC(=O)c1ccc(-n2c(-c3ccccc3)cc3c2CCCC3)cc1 (stereo not drawn),0.45,2.8
COc1ccc(C(C)=O)cc1CSc1nc2ccc(C(F)(F)F)cc2[nH]1,x,-0.14
Cc1cc(C)c2c(c1)/C(=N/N)CCC2,-0.75,x
C=C(C)CSc1nnc2c(n1)[nH]c1ccccc12,0.9,-0.025
CCOC(=O)c1oc2ccc3c(c2c1C)C(=O)CC(C)(C)O3,1.9,0.22
COc1ccc(C2CC(c3c(C)cc(C)[nH]c3=O)=NN2c2ccccc2)cc1 (stereo not drawn),x,-0.52
Cc1cc(=O)oc2c(C)c(OCC(=O)OC(C)C)ccc12,1.1,22
Oc1ccc(CN2CCCCC2)nc1-c1ccccc1,-0.75,71
COc1ccc(C(=O)Nc2nccs2)c(F)c1,-3*,x
CCOC(=O)C1=C(C)NC2=C(C(=O)CC(c3ccc(OC)c(OC)c3)C2)C1c1ccc(OC)cc1OC (stereo not drawn),x,6
O=C(Nc1ccccc1)c1ccc(NC2=NC3CS(=O)(=O)CC3S2)cc1 (stereo not drawn),-0.2,-0.15
CCCCOc1ccc(C2Oc3ccc(OC)cc3C3CC(c4ccc(OC)cc4)=NN32)cc1 (stereo not drawn),x,-0.29
CC(C)CCN1Cc2ccccc2C1,-0.75,-0.41
O=c1c2c(nc(NCCCO)n1Cc1ccccc1)-c1ccccc1CC21CCCCC1,x,54
N#CC1C(c2cccs2)C(C(N)=O)C(=O)NC1(O)c1ccccc1 (stereo not drawn),2.1,-0.32
CC(C)Cn1c2ccc(Cl)cc2c2nc3ccccc3nc21,0.55,0.56
Cc1cc(C(=O)N/N=C/c2c(C)nc3sccn23)c(C)o1,-0.3,x
Cc1nn(-c2ccccn2)c2c1-c1nc(N)ncc1CC2,-0.65,83
O=C(c1ccccc1NC(=O)N(C1CC1)C1CCN(Cc2ccccc2)CC1)N1CCN(C(c2ccccc2)c2ccccc2)CC1,x,0.81
Cc1cc(C)n(C(=O)c2ccoc2C)n1,-0.55,x
CCC1(CC)C(=O)NC(=S)N(C)C1=O,-0.95,-0.23
Oc1ccc(Cn2cnc3ccccc32)cc1,-0.55,x
O=C(NCc1ccco1)c1ccccc1C(=O)c1ncc[nH]1,-0.55,-0.21
CCOC(=O)CSc1nc(-c2ccccc2)cn1-c1ccccc1,2.3,-0.75
Cc1ccc2nc(Nc3cccc(C(F)(F)F)c3)c(C#N)cc2c1,0.65,8

# Quoted at random: three entries already listed.
SMILES,AID504770,Ba CapD inh
O=c1c2c(nc(NCCCO)n1Cc1ccccc1)-c1ccccc1CC21CCCCC1,x,54
CCOC(=O)CSc1nc(-c2ccccc2)cn1-c1ccccc1,2.3,-0.75
CC(C)Cn1c2ccc(Cl)cc2c2nc3ccccc3nc21,0.55,0.56

# Next section
SMILES,AID504770,Ba CapD inh
Cc1ccc(Sc2ncccc2-c2nnc(C3CC3)o2)cc1,0.9,1.8
Brc1cccc(-c2nnc3sc(CN4CCc5ccccc54)cn23)c1,-0.15,0.51
N/C(=N\O)c1ccc(OCc2ccc(Cl)cc2Cl)cc1,x,0
OC1CSCc2nc3ccccc3n2C1 (stereo not drawn),-0.7,x

# Filtered by structure, the compounds so far with an aryl thioether with sulfur outside any ring.
SMILES,AID504770,Ba CapD inh
CCOC(=O)c1cnn(-c2ccccc2)c1NC(=O)CSc1nc2ccccc2[nH]1,x,-1.4
O=C(CSc1ccc(S(=O)(=O)N2CCCCC2)cn1)NCc1ccco1,0.95,x
CCSc1nc2ccccc2c(=O)n1Cc1ccco1,0.15,x
Cc1ccc(NC(=O)CN(C)C(=O)CSc2nccn2C)cc1,-0.45,x
CCSc1nc2sc3c(c2c2n[nH]c(=S)n12)CCCC3,-0.95,-0.075
O=C(O)c1ccc(CSc2ccccn2)cc1,0.6,0.85
CCc1c(C)nc(SCC(=O)N2CC(C)OC(C)C2)[nH]c1=O (stereo not drawn),0.9,x
CC(C)c1nnc(SCC(=O)Nc2ccc(Cl)cc2)n1N,-0.65,x
COc1ccc(OCc2nnc(SCC(=O)N3C(C)CCCC3C)o2)cc1 (stereo not drawn),-0.5,x
C=CCn1c(SCC(=O)NC(=O)Nc2ccccc2F)nc2ccccc21,0.75,x
Cc1ccc(C)c(NC(=O)CSc2ncnc3c2oc2ccccc23)c1,-0.9,x
COc1ccc(C(C)=O)cc1CSc1nc2ccc(C(F)(F)F)cc2[nH]1,x,-0.14
C=C(C)CSc1nnc2c(n1)[nH]c1ccccc12,0.9,-0.025
CCOC(=O)CSc1nc(-c2ccccc2)cn1-c1ccccc1,2.3,-0.75
Cc1ccc(Sc2ncccc2-c2nnc(C3CC3)o2)cc1,0.9,1.8

# Compound activity as filed in PubChem.

# An unsorted share of the library; any-hit rate near 0.37%.
